ugtP null kill: growth inhibition of S. aureus ugtP deletion strain. S. aureus RN4220 ugtP deletion, OD600 growth, 16 h; some inactives read as strong as hits. growth inhibition, % (test concentration not listed). hit rate 0.54% among 330,000;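 active = z-score under -3 and OD600 up to 0.15 on both plates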;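 also: plate controls were untreated wells for no effect and antibiotic for full effect; wells of about 80 µL received 100 nL stock; the first replicate is given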
Sa RN4220 lethal: kills Staphylococcus aureus RN4220 | inhibition, % (test concentration not listed) | hit rate 0.33% among 330,000 | S. aureus RN4220 growth, OD600, 16 h;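 active = z-score of -3 or lower and OD600 up to 0.18 on both plates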;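 also: plate controls were untreated cells for no effect and reference antibiotic for full effect; stock transfer was 100 nL into about 80 µL; one replicate is shown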
PrP 5UTR inh: suppresses PrP 5' UTR mRNA reporter expression; AID 488862; hit rate 0.35% among 340,000; inhibition, % (test concentration not listed); cell-based PrP 5' UTR mRNA reporter, plate reader;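 active = every replicate at 50% or more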;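 also: 0 = median of the neutral control wells; tested in H4 reporter cells; numbers are from one replicate; inactives centre near -14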
BJeLR lethal: kills HRASV12-expressing BJeLR cells. inhibition, % (no concentration beside the values). AID 1554. hit rate 0.17% among 300,000. BJeLR (HRASV12) viability, CellTiter-Glo ATP luminescence, 48 h; reference of the scale not given here;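 active = replicate mean above 50%; inconclusive = above 50% but judged a plate artefact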;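 also: 50 nL library stock added to about 25 µL; numbers are from one replicate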
Autofluor counter: counter-screen for toxin protease inhibitors: compound fluorescence | AID 624483 | compound autofluorescence counterscreen, microsphere flow cytometry; active compounds read high | fluorescence intensity (concentration not given with the values) | hit rate 3.1% among 360,000;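 active = at least 3 SD above the mean of all compounds, about 16000 in these data; inconclusive = too few beads counted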;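 also: 100 nL of 1 mM stock went into each well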
Mtb hypoxia rep: reduces hypoxia-regulated biosensor signal in M. tuberculosis; M. tuberculosis hypoxia-regulated fluorescent reporter, fluorescence; AID 1159583; fluorescence inhibition, % (concentration not given with the values); hit rate 0.1% among 300,000;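 active = 35 to 45% if threefold the growth effect, above 45% if 1.5-fold the growth effect; inactive = the rest, general growth blockers included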;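 also: wells of about 50 µL received 100 nL stock; 0% = vehicle wells and 100% = reference inhibitor wells; whole bacteria with a GFP reporter of the hypoxia response; strong numbers were not always called active; many hits fall short of the cut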
Mtb hypoxia rep growth: also measured in Mtb hypoxia rep; calls as there; growth inhibition, %; measured here: M. tuberculosis growth (absorbance);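 0% = vehicle and 100% = reference antibiotic; read after six days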
* hit, by the source's call; ? = inconclusive; . = not tested or not shown; & = joins results of further samples.

The line under a structure holds: Autofluor counter | Sa RN4220 lethal | ugtP null kill | PrP 5UTR inh | Mtb hypoxia rep growth | BJeLR lethal | Mtb hypoxia rep
CN1CCc2nc(SCC(=O)Nc3cccc(F)c3)c(C#N)c(-c3cccs3)c2C1
→ 6783 | -1.0 | -11 | -39 | -1 | -5 | -9
O=C1N=C(N2CCCC2)S/C1=C\c1cccc(Br)c1
→ 3233 | . | . | -23 | . | -7 | .
CC(=NNC(=O)c1cccc(S(=O)(=O)N2CCOCC2)c1)c1ccc(C)cc1
→ . | 5.2 | 3 | . | 7 | . | 17
Oc1ccc(CNCC2COc3ccccc3O2)cc1 (stereo not given)
→ 2605 | 19 | 11 | 2 | 5 | 0 | 0
CCCn1c(Nc2ccccc2)nc2ccccc21
→ 4719 | -0.9 | 0 | -16 | . | 11 | .
COCCCNC(=O)CC(C)c1ccccc1 (stereo not given)
→ 2660 | 3.8 | 3 | -22 | 7 | -14 | 9
CCCNC(=O)C1(O)c2cc(Br)ccc2NC(=O)N1c1ccc(Cl)cc1 (stereo not given)
→ 3906 | 1.3 | -3 | -16 | 6 | -8 | 1
OC(COc1c(F)cc(Br)cc1F)CN1CCOCC1 (stereo not given)
→ 3984 | 2.6 | 2 | -7 | -7 | -6 | 7
COC(=O)c1cc(C(=O)Nc2cc(C)ccn2)cc([N+](=O)[O-])c1
→ 2765 | 16 | 9 | -12 | 9 | 6 | 1
O=C(NCc1ccccc1)C1=CC(C2CC2)CC(OCCCCO)O1 (stereo not given)
→ . | -0.3&3.7 | -1&3 | . | -8&4 | . | -1&13
CC(=O)Nc1sc(C)c(C)c1C(=O)OCC(=O)N(CC(C)C)C1CCS(=O)(=O)C1 (stereo not given)
→ 1970 | 3.5 | 5 | 7 | 4 | 11 | 11
COc1ccc(-c2ccc(=O)n(CC(=O)Nc3ccc4c(c3)OCCO4)n2)cc1
→ 4790 | 3.1 | 4 | -28 | 2 | -4 | 8
CCOc1nc2cnccc2n(CC(=O)Nc2cccc(C)c2C)c1=O
→ 6006 | 0.7 | -2 | -13 | -2 | -14 | -1
CC(=O)NCCC(=O)Nc1nc2ccc(Oc3ccccc3)cc2s1
→ 3670 | -4.5 | -5 | -51 | -7 | 2 | -5
CCCC(=O)N1CCN(c2ccc([N+](=O)[O-])c(NC(C)c3ccccc3)c2)CC1 (stereo not given)
→ 16602* | -2.4 | -9 | -25 | 16 | 1 | 11
COc1cccc(-c2cc(C(=O)N3CCc4ccccc4C3)no2)c1
→ 10681 | 8.2 | -16 | -9 | 7 | . | 3
O=C(CC(=O)N/N=C\c1cccc(Cl)c1Cl)NCc1ccccc1
→ 10487 | . | . | -14 | . | -8 | .
CC(C)OP(=O)(OC(C)C)C(Nc1ccc(C(=O)O)cc1)c1ccccc1 (stereo not given)
→ 4644 | 1.8 | 4 | 5 | -6 | -5 | 6
COc1cc(NC(=O)c2ccc(C(C)(C)C)cc2)c(OC)cc1NC(=O)CN1CCCCC1
→ 4808 | -2.8 | 0 | 2 | 4 | 9 | 13
CCn1c(C)c(C)c2cc(C(=O)N3CCN(c4cccc(C)c4C)CC3)ccc21
→ . | -22 | 15 | -8 | -10 | -2 | 3
CC1CCc2c(sc3nc(CSc4ncn[nH]4)[nH]c(=O)c23)C1 (stereo not given)
→ 2241 | 5.3 | 0 | 9 | 8 | 4 | 9
O=C1NCC(O)=C1C=NCCO
→ 1989 | 0.9 | -4 | 8 | . | -2 | .
CN1CC[n+]2cnc3ccccc3c21
→ 18857* | 4.0 | 3 | -18 | 13 | -7 | 4
Cc1sc(NC(=O)C2=COCCO2)nc1-c1ccc(Cl)cc1
→ ? | -3.3 | 2 | -32 | 4 | -6 | 2
COc1ccc(S(=O)(=O)N2CCN(c3cc(-c4ccccc4)nc4ncnn34)CC2)cc1
→ 11563 | 4.0 | 2 | -1 | 4 | 9 | 2
COC(=O)Cn1c(CN2CCOCC2)nc2c1c(=O)[nH]c(=O)n2C
→ 4283 | 2.1 | 5 | -47 | 6 | 2 | 3
Cc1c(CNC(=O)c2c([N+](=O)[O-])cnn2C)cnn1C
→ 4995 | 1.1 | 4 | -11 | 7 | -4 | -1
CC(=O)N1N=C(c2c(-c3ccccc3)c3cc(Br)ccc3[nH]c2=O)CC1c1ccco1 (stereo not given)
→ 4641 | -6.1 | -12 | 1 | 20 | -3 | -19
COc1ccc(CCNC(=O)Cc2ccc([N+](=O)[O-])cc2)cc1OC
→ 5955 | 3.0 | -3 | -2 | 7 | -3 | -10
CC(=O)c1ccc(OCC(C)C)c(CC(C(N)=O)C(N)=O)c1
→ 13264 | 0.4 | -7 | -22 | 8 | -13 | 3

More records:
The line under a structure holds: Autofluor counter | Sa RN4220 lethal | ugtP null kill | PrP 5UTR inh | Mtb hypoxia rep growth | BJeLR lethal | Mtb hypoxia rep
Cc1[nH][nH]c(=O)c1N=Nc1ccccc1Cl
→ 4362 | 11 | 18 | -11 | -10 | -4 | 17
COc1ccc(C(=O)NC(=S)NNC(=O)c2cnccn2)cc1
→ 10997 | 22 | 0 | 0 | 4 | 10 | 19
CC(C)(C)NC(=O)/C(=C/c1ccccc1F)NC(=O)c1ccc([N+](=O)[O-])cc1
→ 2735 | 0.2 | 6 | -36 | -6 | -2 | 2
CC(=O)/C=C(\C)N=Nc1c(O)[nH]c2ccccc12
→ 5663 | 5.8 | 2 | -29 | -10 | -9 | -3
CC(Sc1nnc(-c2cccnc2)n1C)C(=O)N1CCOCC1 (stereo not given)
→ ? | 3.2 | 0 | -11 | 0 | 3 | -10
COc1ccc(C(=O)Nc2cc(Cl)ccc2Cl)c(OC)n1
→ 3164 | 6.0 | 2 | -43 | 3 | 0 | 7
CC1=NN(C(=O)CSCc2ccccc2)C(O)(c2ccccc2)C1 (stereo not given)
→ 3424 | 2.5 | -2 | -12 | 0 | -1 | 10
Cc1ccc(CNC(=O)CCCNC(=O)c2ccc(Cl)cc2)n1C
→ 5685 | 5.2 | -8 | -34 | 2 | -1 | -7
Cc1cccc(C(=O)NCCNC(=O)c2cnccn2)c1
→ 4084 | 2.6 | 4 | 3 | 8 | 4 | 1
Clc1nc(CN2CCCCC2)nc2sc3c(c12)CCCC3
→ 5465 | 1.2 | 1 | -8 | 0 | -8 | 11
COC(=O)c1scc2c(=O)cc(C(F)(F)F)[nH]c12
→ 3784 | 7.2 | 10 | -16 | 2 | -10 | 1
CCc1ccc(NC(=O)c2cc(-c3ccc(OC)cc3)on2)cc1
→ 10869 | 3.3 | -4 | . | 2 | 3 | 2
O=C(NNC(=O)c1ccccc1Cl)c1ccc(-n2cncn2)c([N+](=O)[O-])c1
→ 6908 | 10 | 12 | -15 | 4 | . | -2
Cc1ccc(C)c(N2CCN(Cc3nnnn3C3CCCCC3)CC2)c1
→ 4176 | 2.6 | -5 | -6 | . | 6 | .
NS(=O)(=O)c1cccc(NC(=O)CCCNC(=O)c2ccc(Cl)cc2)c1
→ 3178 | 5.8 | 1 | 15 | -12 | -5 | -11
Cc1cc(C)c(S(=O)(=O)Cc2ccc(Cl)cc2)c(=O)[nH]1
→ 3263 | -0.5 | -1 | -5 | 8 | -1 | -2
CCOC(=O)c1nc2sc3c(c2c(=O)n1C(C)C(=O)OCC)CCCC3 (stereo not given)
→ 4681 | 7.1 | 18 | -14 | 6 | 13 | 16
CCOC(=O)C1C(=O)CC(C)(O)C(C(=O)OCC)C1c1ccc2c(c1)OCO2 (stereo not given)
→ 3493 | 2.7 | 9 | -16 | . | -4 | .
C[C@@H]1C=C[C@](Cc2ccccc2)(C(=O)O)N1C(=O)c1ccccc1
→ 4078 | . | . | -36 | . | 3 | .
CC1CCN(S(=O)(=O)c2ccc3c(c2)N(CC(=O)NCCCN2C(C)CCCC2C)C(=O)CO3)CC1 (stereo not given)
→ 7407 | 0.3 | 1 | -12 | 4 | -12 | 7
COc1cc2ccccc2cc1C(=O)N1CCN(c2ccccn2)CC1
→ 5717 | 5.8 | 7 | 6 | 5 | -2 | 17
NS(=O)(=O)c1ccc(N/N=C2/CCCCC2C2CCCCC2)c([N+](=O)[O-])c1 (stereo not given)
→ 2591 | . | . | -12 | . | -15 | .
O=C(NCCSCc1ccccc1)c1ccc(Cl)c(S(=O)(=O)N2CCOCC2)c1
→ 4629 | -3.6 | -7 | -22 | . | -7 | .
COC(=O)c1cccnc1-n1c(=O)c2cccnc2n(Cc2ccc([N+](=O)[O-])cc2)c1=O
→ 3496 | 3.6 | 8 | -16 | 8 | -5 | 2
O=C(COC(=O)c1n[nH]c2ccccc12)Nc1ccc(S(=O)(=O)N2CCCC2)cc1
→ 2818 | -0.1 | -10 | 3 | . | . | .
Cc1cc(C(=O)Nc2ccc([N+](=O)[O-])cn2)cs1
→ 4021 | 2.8 | 14 | -74 | 1 | -2 | 6
COc1ccc(C(=O)OCc2c(-c3cccc(OC)c3)ncc3ccccc23)cc1
→ 3730 | -4.6 | 39 | -62 | 9 | . | 5
COc1cc(CNc2ccc3[nH]c(=O)[nH]c3c2)cc(Br)c1OCc1ccccc1F
→ 3815 | 2.8 | 4 | -10 | 8 | -1 | -1
OC(CN1CCCCC1)Cn1c(C(F)(F)F)nc2ccccc21 (stereo not given)
→ 4808 | 3.1 | 0 | -23 | . | 11 | .
COc1ccccc1NC(c1cccnc1)c1ccc2cccnc2c1O (stereo not given)
→ 2010 | 14 | -7 | -24 | 8 | 0 | 5

Three successive records from above:
The line under a structure holds: Autofluor counter | Sa RN4220 lethal | ugtP null kill | PrP 5UTR inh | Mtb hypoxia rep growth | BJeLR lethal | Mtb hypoxia rep
COc1cc(CNc2ccc3[nH]c(=O)[nH]c3c2)cc(Br)c1OCc1ccccc1F
→ 3815 | 2.8 | 4 | -10 | 8 | -1 | -1
OC(CN1CCCCC1)Cn1c(C(F)(F)F)nc2ccccc21 (stereo not given)
→ 4808 | 3.1 | 0 | -23 | . | 11 | .
COc1ccccc1NC(c1cccnc1)c1ccc2cccnc2c1O (stereo not given)
→ 2010 | 14 | -7 | -24 | 8 | 0 | 5

The results go on.
The line under a structure holds: Autofluor counter | Sa RN4220 lethal | ugtP null kill | PrP 5UTR inh | Mtb hypoxia rep growth | BJeLR lethal | Mtb hypoxia rep
COc1ccc(CCNC(=O)C2CCCN(S(=O)(=O)c3ccc(F)cc3)C2)cc1OC (stereo not given)
→ ? | -3.2 | -5 | 2 | -1 | 3 | 0
CCOc1ccccc1C(=O)NCC(=O)NCC(c1ccco1)N1CCCCC1 (stereo not given)
→ ? | 3.9 | 16 | -15 | -4 | 4 | 6
CCN(CC)C(=O)C(=O)NN=Cc1cccs1
→ . | 3.5 | 2 | . | -1 | . | 9
Cc1cccc(OCC(=O)Nc2nnn(C)n2)c1C
→ 2867 | 2.0 | 0 | -9 | 4 | 2 | 14
CC(=O)NC(Cc1ccc(F)cc1)C(=O)O (stereo not given)
→ 3739 | 5.5 | 5 | -47 | 15 | -9 | 14
O=C(NNC(=O)c1ccc[nH]1)Nc1cc(Cl)cc(Cl)c1
→ 3772 | -0.9 | -1 | . | 6 | 12 | 3
COc1ccc(-n2nc(C(=O)NCC(=O)NCCN(C)C)c3ccccc3c2=O)cc1
→ 3258 | -0.8 | 2 | -11 | -11 | -13 | 3
COc1ccc(Cn2nnc3c(=O)[nH]c(C4CCCN(C(=O)c5ccccc5)C4)nc32)cc1 (stereo not given)
→ 4832 | 5.4 | 19 | -6 | 6 | 3 | 4

An excerpt of these results, bar-delimited.
smiles | Autofluor counter | Sa RN4220 lethal | ugtP null kill | PrP 5UTR inh | Mtb hypoxia rep growth | BJeLR lethal | Mtb hypoxia rep
CC(=O)NC(Cc1ccc(F)cc1)C(=O)O (stereo not given) | 3739 | 5.5 | 5 | -47 | 15 | -9 | 14
O=C(NNC(=O)c1ccc[nH]1)Nc1cc(Cl)cc(Cl)c1 | 3772 | -0.9 | -1 | . | 6 | 12 | 3
Cc1cccc(OCC(=O)Nc2nnn(C)n2)c1C | 2867 | 2.0 | 0 | -9 | 4 | 2 | 14
COc1ccc(Cn2nnc3c(=O)[nH]c(C4CCCN(C(=O)c5ccccc5)C4)nc32)cc1 (stereo not given) | 4832 | 5.4 | 19 | -6 | 6 | 3 | 4
CCN(CC)C(=O)C(=O)NN=Cc1cccs1 | . | 3.5 | 2 | . | -1 | . | 9
CCOc1ccccc1C(=O)NCC(=O)NCC(c1ccco1)N1CCCCC1 (stereo not given) | ? | 3.9 | 16 | -15 | -4 | 4 | 6

Screening data (PubChem BioAssay)

An unsorted share of the library, and some 4% of all compounds hit somewhere here.
